eIF4H FP inh: inhibitors of RNA binding by human eIF4H; Q15056; eIF4H fluorescence polarization binding assay; inhibition, % at 35 µM; hit rate 0.94% among 290,000; AID 2012;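 active = 50% or more with normal probe brightness, or confirmed in later tests; about a fifth of its hits are not listed in these tables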;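 also: calls also rest on retests at 20 µM and on dose response follow-up; 0% = protein and probe with vehicle and 100% = probe without protein; strong numbers were not always called active; many hits fall short of the cut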
Rce1 inhib: yeast Ras-converting enzyme inhibition. Q03530. yeast membranes, quenched prenylated peptide cleavage fluorescence. hit rate 0.27% among 290,000. calls only;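 active = fall in fluorescence gain of 50% or more versus controls, with final raw signal at or below 3038400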;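 also: plate controls were neutral control wells for no effect and wells lacking membranes for full effect; tested at 10 µM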
CSC inhib: cancer stem cell inhibition. cancer stem cell-like cells viability, luminescence. inhibition, % at 7.5 µM. hit rate 1.1% among 300,000. AID 2717;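 active = mean at 75% or more and at least half the replicates too; tested in HMLE shEcad cells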;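 also: 0% = median of negative and 100% = median of positive control wells; the first replicate is given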
MT1-MMP act inh: MT1-MMP (human) activation inhibition. P50281. HT1080 RFP-PRO-GFP cells, GFP/RFP ratio fluorescence, overnight; percent of plate control window, DMSO zero. GFP/RFP ratio change, % at 20 µM. hit rate 0.061% among 360,000;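 active = GFP/RFP ratio change of at least 30% with cell ATP level not reduced by more than half and red fluorescence within 50% of control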; also: strong numbers were not always called active
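Material: RFP-PRO-GFP reporter HT1080 cells. Dosing: single-point 20 µM compound, 1% DMSO. Controls: DMSO and RFP-L50D-GFP cell wells. Timing: cells overnight before dosing, compound overnight, 37 °C, 5% CO2. Measure: GFP/RFP fluorescence ratio.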
Env fusion inh: HIV envelope-mediated fusion inhibition; inhibition, % at 12.3 µM; hit rate 1.1% among 360,000; HeLa-JRFL Env/CEM21 cell fusion, luciferase;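 active = mean replicate inhibition score of at least 50 and every replicate individually at or above 50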;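 also: 0% = plate neutral controls and 100% = maraviroc near 300 nM; one replicate is shown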
UUG fidelity: yeast start codon fidelity modulation; S. cerevisiae UUG-firefly luciferase reporter, luminescence/redox ratio; activity score, % at 18.7 µM; hit rate 0.13% among 350,000; AID 602363;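 active = replicate mean at a twofold rise or more, about +100% in these data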;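 also: firefly luciferase made from a UUG start codon reports start codon fidelity; reporter light over untreated wells divided by growth signal over untreated wells; some hits fall short of that in this replicate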
PABP FP inh: blocks human PABP binding to poly(A) RNA. P11940. fluorescence polarization. inhibition, % at 35 µM. hit rate 1% among 290,000;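 active = 50% or more with normal probe brightness, or confirmed in later tests; about a fifth of its hits are not listed in these tables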;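 also: calls also rest on retests at 20 µM and on dose response follow-up; controls were probe without protein and protein plus probe with vehicle; some compounds called inactive have numbers as strong as hits; many hits fall short of the cut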
Target sequence (P11940 whole entry, looked up): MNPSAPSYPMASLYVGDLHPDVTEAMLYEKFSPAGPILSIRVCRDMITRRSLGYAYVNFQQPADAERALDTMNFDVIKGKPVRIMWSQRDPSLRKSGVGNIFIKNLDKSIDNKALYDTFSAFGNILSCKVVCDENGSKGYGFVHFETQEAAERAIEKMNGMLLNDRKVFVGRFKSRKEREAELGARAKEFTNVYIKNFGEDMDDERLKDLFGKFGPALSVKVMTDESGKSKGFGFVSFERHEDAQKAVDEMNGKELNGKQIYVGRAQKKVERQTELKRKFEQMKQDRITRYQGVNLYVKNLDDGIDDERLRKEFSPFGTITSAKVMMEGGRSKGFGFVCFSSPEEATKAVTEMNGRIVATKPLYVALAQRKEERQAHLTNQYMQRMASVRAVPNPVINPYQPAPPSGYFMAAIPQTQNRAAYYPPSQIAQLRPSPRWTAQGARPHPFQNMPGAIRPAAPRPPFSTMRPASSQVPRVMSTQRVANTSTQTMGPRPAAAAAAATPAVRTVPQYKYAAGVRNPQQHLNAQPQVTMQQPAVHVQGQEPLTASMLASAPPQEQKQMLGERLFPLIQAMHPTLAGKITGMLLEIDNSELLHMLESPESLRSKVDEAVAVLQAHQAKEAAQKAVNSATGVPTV
eIF4H FP inh retest: recorded beside eIF4H FP inh, whose call it bears; inhibition, %; compound at 20 µM; confirmation average;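 mean of two retest wells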
PABP FP inh retest: recorded beside PABP FP inh, whose call it bears; inhibition, %; compound at 20 µM; confirmation repeats;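 mean of two retest wells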
MT1-MMP act inh RFP: further read-out of MT1-MMP act inh, marked with its call; RFP signal change, %; measured here: RFP expression control read;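 0 = vehicle wells; hits needed this value within 50% of zero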
* marks the source's active call; other numbers are inactive results; i = inactive; · = no result given; + = active, no number; & = joins results of further samples. Outcome played no part in choosing rows. About 2.9% of those tested had a hit in this group.

SMILES | eIF4H FP inh | Rce1 inhib | CSC inhib | MT1-MMP act inh | MT1-MMP act inh RFP | Env fusion inh | UUG fidelity | PABP FP inh | others
CC1(C(=O)O)CCC(C(=O)NC2CCCCCC2)C1(C)C (configuration not stated) | 3 | i | 9 | 6 | 2 | 1 | 0 | -12
CCC(C(=O)NC1CCCC1)N(C(=O)Cn1nnc(-c2cccs2)n1)c1cnc2ccccc2c1 (configuration not stated) | -9 | i | -6 | -3 | -5 | -113 | 0 | 2
O=C(Nc1ccccc1Oc1cccnc1)C1CCCN(C/C=C/c2ccccc2)C1 (configuration not stated) | -1 | i | -10 | 6 | 5 | 9 | -2 | -14
Cc1cc(C)nc(NS(=O)(=O)c2ccc(NC(=O)c3cccs3)cc2)n1 | -14 | i | -3 | -1 | -2 | · | -13 | -3
O=C1[C@H]2[C@@H](c3ccccc3)N[C@]3(CCCN(CC4CCCCC4)C3=O)[C@H]2C(=O)N1Cc1ccccc1 | · | · | · | -3 | -2 | -226 | 0 | ·
COC(C/C=C/[C@@H](O)[C@H](C)OCc1ccccc1)OC | · | + | -4 | 3 | 2 | -11 | -12 | ·
CCN(CC)CCCNC(=O)C1c2ccccc2C(=O)N(C)C1c1ccc(OC)cc1 (configuration not stated) | -2 | i | -2 | 1 | 0 | -56 | -2 | 3
Cc1cc(C)n(-c2cc(C(=O)O)cc(C(=O)O)c2)n1 | -8 | i | -9 | 1 | 6 | 5 | · | -8
Nc1ncnn1Cc1ccccc1 | · | · | · | 1 | -1 | 12 | -20 | ·
Cc1cccc(CSc2ncnc3nc[nH]c23)c1 | 0 | i | 13 | 2 | 1 | 11 | -6 | -2
COC(=O)CNC(=O)c1cc(-c2ccncc2)nc2ccc(C)cc12 | -3 | i | -3 | -3 | 1 | 7 | -20 | 11
O=C(CCN1C(=O)[C@@H]2Cc3ccccc3CN2C1=O)NCc1ccc(Cl)cc1 | -7 | i | -7 | -3 | 5 | -11 | 16 | 4
O=C(NCc1cccc(Cl)c1)c1cccc(OC2CCN(C(=O)C3CC3)CC2)c1 | -14 | i | -14 | -5 | -28 | 28 | 0 | 3
COc1ccc(NC(=O)C2CCN(C(=O)Nc3ccccc3)CC2)cc1S(=O)(=O)N(C)C | · | · | 2 | -4 | -1 | · | -7 | ·
CCn1nnnc1NCc1c(OC)ccc2ccccc12 | -9 | i | -9 | 2 | -4 | -6 | · | -12
Cc1csc(NC(=O)CN(C)S(=O)(=O)c2cccc3cccnc23)n1 | -8 | i | -7 | 0 | 2 | -2 | -7 | 3
Cc1nn(-c2ccccc2)c2c1C1(C(=O)N(C)c3ccccc31)N(c1ccccc1)C(=O)N2 (configuration not stated) | 3 | i | -12 | -7 | -4 | · | -4 | -10
CCc1ccc([C@@H]2CC=C(C(=O)O)[C@H](c3ccccc3F)N2S(=O)(=O)c2ccc(C)cc2)cc1 | · | · | 6 | 2 | 7 | 7 | 0 | ·
CC(=O)c1cccc(NC(=O)C(C)N2CCc3ccccc3C2)c1 (configuration not stated) | -8 | i | 21 | 0 | 0 | 0 | -11 | 1
NC1=NC(=O)/C(=C/c2c(OS(=O)(=O)c3ccc(Cl)cc3)ccc3ccccc23)S1 | -6 | i | · | -1 | 3 | · | · | 5
Cc1cc(C)cc(C(=O)OCC(=O)NCc2ccco2)c1 | · | · | -6 | 1 | 2 | -6 | -3 | ·
O=C(COC(=O)COc1ccccc1[N+](=O)[O-])NC1CCCCC1 | · | · | -13 | 1 | 7 | 6 | -4 | ·
COc1ccccc1Nc1nc(-c2ccccc2)nc2ccccc12 | 0 | i | 38 | -4 | -2 | 7 | · | 1
COc1ccc(-c2nn(-c3ccccc3C)cc2CNC(C)c2cn(C)nc2C)cc1F (configuration not stated) | 3 | i | 5 | -4 | -2 | 48 | -22 | -4
CC(=O)N1CCc2cc(S(=O)(=O)NC(CC(C)C)C(=O)Nc3cc(C(=O)O)ccc3C)ccc21 (configuration not stated) | -6 | i | 0 | 2 | -4 | -40 | 0 | 5

Later entries
SMILES | eIF4H FP inh | Rce1 inhib | CSC inhib | MT1-MMP act inh | MT1-MMP act inh RFP | Env fusion inh | UUG fidelity | PABP FP inh | others
CCC(C)(C)NC(=O)C(c1ccc(O)cc1)N(C(=O)Cn1nnc2ccccc21)c1ccc(NC(C)=O)cc1 (configuration not stated) | 0 | i | 0 | 6 | 2 | 4 | -15 | -6
CC(C)n1nnnc1-c1cc(Cl)cc(Cl)c1 | -6 | · | · | 2 | 0 | -15 | 0 | 4
OC(COc1ccccc1)Cn1cc(Br)cn1 (configuration not stated) | -4 | i | -1 | -7 | -4 | -18 | 7 | 6
CC(C)c1ccc(NC(=O)C2C3C=CC(CC3)C2C(=O)O)cc1 (configuration not stated) | · | i | 25 | 4 | -2 | -4 | -5 | ·
CC(C)OC(=O)CCCN1C(=O)c2ccc(N)cc2C1=O | 3 | i | -25 | -1 | -3 | · | -14 | 7
COc1cccc(-n2c(SCC(=O)N3CCc4ccccc43)nnc2-c2c[nH]c3ccccc23)c1 | -5 | i | 37 | 14 | 0 | 56* | 16 | -1
COc1cccc(CNC(=O)CSCC(=O)Nc2ccc(C)cc2)c1 | · | i | -3 | -6 | 0 | · | -16 | ·
Cc1nc(SCCCSc2n[nH]c(C)n2)n[nH]1 | -1 | i | · | 3 | 6 | · | -18 | -9
COc1cccc(NC(=O)C(NCC(C)(C)CN(C)C)c2ccccc2)c1 (configuration not stated) | -4 | i | 4 | -2 | 4 | -71 | -17 | 26
CCOC(=O)c1cnc2ccc(C)cn2c1=O | -10 | · | -10 | 0 | 0 | -2 | -18 | 3
O=C1CN=C(Nc2ccccc2Cl)N1Cc1ccc2c(c1)OCO2 | -6 | · | -14 | -3 | -1 | -35 | 3 | -5
CCN1C(=O)N(CC)C2NC(=S)NC21 (configuration not stated) | 10 | i | 2 | 5 | 7 | · | -9 | -1
Cc1cc(C(=O)C(C)OC(=O)c2cnccn2)c(C)n1-c1ccccc1 (configuration not stated) | · | i | -10 | 1 | -4 | -10 | · | ·
CSCCC(NC(=O)/C(=C\c1ccc(Cl)cc1)NC(=O)c1ccccc1)C(=O)O (configuration not stated) | 0 | i | 6 | 2 | 3 | 11 | · | 6
O=C(c1ccc(S(=O)(=O)N2CCOCC2)cc1)N(c1ccccc1)C1C=CS(=O)(=O)C1 (configuration not stated) | -8 | i | -2 | 6 | 6 | · | -12 | -2
CC(=O)N(Cc1ccc(F)cc1)Cc1nc2ccccc2c(=O)[nH]1 | -4 | i | 10 | -4 | -2 | 2 | -4 | 6
O=C(Nc1cccc(S(=O)(=O)N2CCCCC2)c1)C1CCC1 | · | i | 16 | 1 | 0 | 1 | -8 | ·
CCCCn1nc2cc(C(=O)NCc3ccco3)ccc2c1OCC | -2 | i | -11 | -2 | 1 | -4 | -18 | 2
CS(=O)(=O)N1N=C(c2cccs2)CC1c1ccccc1F (configuration not stated) | 5 | i | -3 | -6 | 0 | -3 | · | 4
CCn1ccc(C(=O)NCCCN2CCCC2=O)n1 | 7 | i | 5 | -2 | -1 | · | -14 | 5
O=C(COc1ccc(F)cc1F)Nc1cccnc1 | -9 | i | 13 | 1 | 5 | -16 | -23 | 6
CC1(C)Cc2c(sc3c2c(=N)n(Cc2ccco2)c(=O)n3CC(=O)Nc2cccc(Cl)c2)CO1 | -18 | i | 6 | -7 | -5 | · | -12 | -6
COc1ccc(C(=O)NCCc2ccccc2)cc1OC | -2 | i | -6 | 1 | 4 | -26 | -6 | 3
COc1cccc(-c2cnc3c(NC=O)cc(-c4ccc(S(C)(=O)=O)cc4)cn23)c1 | · | · | · | -2 | 3 | -3 | -20 | ·
CCOc1ccc(S(=O)(=O)NCCCN2CCCC2=O)cc1 | -6 | i | 2 | -1 | -2 | 7 | · | 6

Later entries
SMILES | eIF4H FP inh | Rce1 inhib | CSC inhib | MT1-MMP act inh | MT1-MMP act inh RFP | Env fusion inh | UUG fidelity | PABP FP inh | others
COc1ccc(-c2ccc3c(c2)C2CC3CCN2C(=O)C2CCCCC2)cc1 (configuration not stated) | · | · | · | -3 | -19 | 31 | -14 | ·
O=C(NC1CCC(C(=O)O)CC1)OCc1ccccc1 (configuration not stated) | -3&-6 | i | 1&-2 | 4&1&-2 | -1&1&4 | 14 | 5&-12 | 2&-7
CCOC(=O)c1c(C)n(C)c2cc(-c3cccc(C(F)(F)F)c3)c(O)cc12 | 2 | i | 0 | 1 | 1 | 13 | · | -3
COc1ccc(CNC(=O)CCCc2ccccc2)cc1 | -6 | i | -8 | 1 | 2 | 11 | · | -6
COc1cccc(N/N=C(\C#N)S(=O)(=O)C(C)(C)C)c1 | -5 | i | 1 | 0 | -2 | 2 | · | -4
COc1ccccc1N1CC(C(=O)Nc2ccc(N3CCOCC3)cc2)CC1=O (configuration not stated) | · | · | -18 | 0 | -1 | · | -2 | ·
CN1OC[C@@H]2CN(C(=O)CCc3ccccc3)[C@H](c3cccc(Oc4ccccc4)c3)C[C@@H]21 | · | · | · | -1 | -3 | 5 | -23 | ·
Cc1cccc(C)c1NC(=S)N1CCCN(Cc2ccc(F)cc2)C1 | 2 | i | 1 | -4 | 4 | 5 | -19 | 7
COc1ccc(/C=N/NC(=O)c2nn(-c3ccccc3)c(=O)c3c(N)scc23)cc1 | 71* | i | · | 15 | 11 | -26 | -13 | 31 | eIF4H FP inh retest=78*;PABP FP inh retest=43
COCCn1c(SCC(=O)NC2CCCC2)nnc1-c1ccco1 | -5 | i | -4 | 4 | 6 | 2 | 12 | -6
O=C(Nc1cccc(C(F)(F)F)c1)Nc1ccc2nc([C@@H]3O[C@H](CO)[C@@H](O)[C@H](O)[C@H]3O)[nH]c2c1 | · | · | · | -4 | 6 | -8 | -16 | ·
CN(C(=O)Cn1nnc2ccccc2c1=O)C1CCCCC1 | 4 | i | -13 | 0 | 1 | -9 | · | 9
O=C(Nc1cnn(Cc2ccc(F)cc2)c1)c1cc(-c2cccs2)on1 | 10 | i | 47 | 5 | 0 | · | · | -10
O=[N+]([O-])c1cccc(-n2nncc2-c2ccccc2)c1 | 37 | · | 8 | -1 | 3 | -2 | -10 | 8
COCCCNC(=O)Cn1cnc2c(NCc3ccccc3)ncnc21 | · | · | · | 5 | 5 | -9 | 6 | ·
Cc1n[nH]c(C)c1S(=O)(=O)N1CCCC(C(=O)NC2CCCc3ccccc32)C1 (configuration not stated) | 2 | i | 8 | -4 | -7 | 9 | -1 | -4
COc1ccc(Br)cc1S(=O)(=O)n1ccnc1C | -15 | i | 3 | 2 | 3 | · | -15 | -7
CCOc1c2ccc(C(=O)NCc3ccc4c(c3)OCO4)cc2nn1C | 4 | i | 1 | 6 | 1 | · | -10 | -8
COc1cc(NC(=O)[C@H]2O[C@@H](n3ccc(N)nc3=O)[C@H](O)[C@@H]2O)cc(OC)c1OC | · | · | · | 2 | 2 | -19 | -17 | ·
COc1ccc(-n2ncc(C(C)NS(=O)(=O)c3cc(C)sc3C)c2C)cc1 (configuration not stated) | · | · | · | 2 | -10 | 6 | -4 | ·
CCC(NC(=S)NCc1ccccc1)C(=O)O (configuration not stated) | -8 | i | -7 | 3 | 2 | -70 | -4 | -4

By substructure: the compounds so far containing a furan ring, fused or not
SMILES | eIF4H FP inh | Rce1 inhib | CSC inhib | MT1-MMP act inh | MT1-MMP act inh RFP | Env fusion inh | UUG fidelity | PABP FP inh | others
Cc1cc(C)cc(C(=O)OCC(=O)NCc2ccco2)c1 | · | · | -6 | 1 | 2 | -6 | -3 | ·
CCCCn1nc2cc(C(=O)NCc3ccco3)ccc2c1OCC | -2 | i | -11 | -2 | 1 | -4 | -18 | 2
CC1(C)Cc2c(sc3c2c(=N)n(Cc2ccco2)c(=O)n3CC(=O)Nc2cccc(Cl)c2)CO1 | -18 | i | 6 | -7 | -5 | · | -12 | -6
COCCn1c(SCC(=O)NC2CCCC2)nnc1-c1ccco1 | -5 | i | -4 | 4 | 6 | 2 | 12 | -6
